# D2 PAM: Beta-Arrestin HTS for Positive Allosteric Modulators of the Human D2 Dopamine Receptor: Potentiators; DiscoveRx D2 beta-arrestin cells, luminescence, 90 min; 100% = 57 uM dopamine signal; AID 624464, 2012; 0.23% of 360,000 active; D(2) dopamine receptor (Homo sapiens), P14416; potentiation, % (concentration not given with the values); active = potentiation of 50% or more; inconclusive = 30% to 50%; inactive = 30% or less;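 also: compound concentration not given in the record; tested on top of an EC20 dose of dopamine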
# Target sequence (P14416 whole entry, looked up): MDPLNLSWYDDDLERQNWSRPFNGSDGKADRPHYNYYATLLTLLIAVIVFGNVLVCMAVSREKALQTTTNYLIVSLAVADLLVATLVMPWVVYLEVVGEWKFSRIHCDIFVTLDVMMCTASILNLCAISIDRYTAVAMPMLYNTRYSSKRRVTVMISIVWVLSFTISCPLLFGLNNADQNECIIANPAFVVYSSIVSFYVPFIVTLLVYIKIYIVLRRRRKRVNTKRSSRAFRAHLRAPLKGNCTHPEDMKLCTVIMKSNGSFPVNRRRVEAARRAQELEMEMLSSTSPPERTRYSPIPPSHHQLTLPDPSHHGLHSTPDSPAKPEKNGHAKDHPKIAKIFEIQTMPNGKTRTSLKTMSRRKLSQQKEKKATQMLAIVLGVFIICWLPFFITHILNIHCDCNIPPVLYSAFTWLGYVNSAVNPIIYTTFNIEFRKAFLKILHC
#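 D2 cells co-treated with compound plus 50 nM dopamine (EC20) for 90 min at 37 deg C to detect potentiation. Beta-arrestin recruitment was read as enzyme-fragment luminescence after 1 h at ambient temperature. Full response was set by 57 uM dopamine.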
# Six1-Eya2 inh: qHTS Assay for Inhibitors of the Six1/Eya2 Interaction. Homeobox protein SIX1 (Homo sapiens) + Protein phosphatase EYA2 (Homo sapiens), …. AlphaScreen GST-Six1/His-Eya2 binding, biochemical; hits give low values; control for the full effect not named in the record. activity change, % (no concentration beside the values). 0.56% of 360,000 active; in the data active = activity change below about -65%; inconclusive = about -30% to -65%; inactive = above about -30%; also: % is scaled to controls: 0 for no effect and ±100 for the full control effect; compound concentration not given in the record
#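 AlphaScreen luminescence read after one hour at 37 °C in darkness. Pin-transferred compounds met GST-Six1 and His-Eya2 protein (5X stock 250 nM/500 nM) plus glutathione donor and Ni-chelate acceptor beads (5X, 50 ug/mL).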
# TRPML1 agonist: qHTS for Agonists of the Human Mucolipin Transient Receptor Potential 1 (TRPML1) | activation, % (no concentration beside the values) | Mucolipin-1 (Homo sapiens), Q9GZU1 | AID 624414, 2012 | TRPML1-expressing cells, Ca2+ dye fluorescence, FDSS; host cell line not named in the record; reference of the full effect not given here | 0.12% of 410,000 active; in the data active = activation above about 50%; inconclusive = about 30% to 50%; inactive = below about 30%; also: 0% is about no effect; the text of the record puts the active cut at 80%
# Target sequence (Q9GZU1 whole entry, looked up): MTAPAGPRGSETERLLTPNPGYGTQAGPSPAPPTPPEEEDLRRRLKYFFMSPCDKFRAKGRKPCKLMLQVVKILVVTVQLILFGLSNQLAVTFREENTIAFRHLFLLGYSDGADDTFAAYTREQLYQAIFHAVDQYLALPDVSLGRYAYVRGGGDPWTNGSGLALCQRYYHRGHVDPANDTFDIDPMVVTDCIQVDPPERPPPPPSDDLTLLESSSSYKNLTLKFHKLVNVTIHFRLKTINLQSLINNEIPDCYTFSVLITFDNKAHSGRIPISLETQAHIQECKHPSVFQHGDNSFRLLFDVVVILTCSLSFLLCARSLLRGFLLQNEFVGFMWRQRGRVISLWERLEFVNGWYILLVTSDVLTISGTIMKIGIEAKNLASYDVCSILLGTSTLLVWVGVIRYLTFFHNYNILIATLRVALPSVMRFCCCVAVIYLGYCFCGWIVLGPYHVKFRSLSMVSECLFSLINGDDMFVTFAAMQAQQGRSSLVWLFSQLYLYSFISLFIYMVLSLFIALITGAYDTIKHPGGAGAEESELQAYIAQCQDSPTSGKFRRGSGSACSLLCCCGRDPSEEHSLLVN
#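 In this qHTS format, compounds were pin-transferred onto Ca8-dye-loaded TRPML1-DL cells induced with Tet overnight, and intracellular Ca2+ fluorescence was recorded kinetically for 110 s after a 10 s baseline. A subsequent 4uM final 54-4 (EC80) addition followed by a second 110 s read served as the antagonist phase.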
# CtBP-E1A inh: qHTS Assay for Inhibitors of the CtBP/E1A Interaction | CtBP / adenovirus E1A interaction (AlphaScreen) | AlphaScreen GST-E1A/His-CtBP binding, 1536-well; hits give low values; control for the full effect not named in the record | activity change, % (no concentration beside the values) | 0.49% of 340,000 active | AID 651724, 2012; in the data active means activity change below about -65%; inconclusive means about -30% to -65%; inactive means above about -30%; also: % is scaled to controls: 0 for no effect and ±100 for the full control effect; compound concentration not given in the record
#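 In 5 uL wells, 23 nL compound meets equimolar GST-E1A and His-CtBP (5X stock 125 nM each) for 2 h, 37 °C. Beads (5X, 50 ug/mL) then 1 h, 37 °C, dark.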
# D2 ag: Beta-Arrestin HTS for Positive Allosteric Modulators of the Human D2 Dopamine Receptor: Agonists | AID 624465, 2012 | 0.084% of 360,000 active | DiscoveRx PathHunter D2 beta-arrestin, luminescence, 90 min; 100% = 57 uM dopamine signal | D(2) dopamine receptor (Homo sapiens), P14416 | activation, % (no concentration beside the values); in the data active = activation above about 40%; inconclusive = about 15% to 40%; inactive = below about 15%; also: compound concentration not given in the record; the text of the record calls up to 30% inactive
#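 Agonist mode: compounds alone added to overnight-plated D2 PathHunter cells for 90 min at 37 C, with 57 uM final dopamine (EC100) defining full response. Beta-arrestin recruitment detected by chemiluminescent reagent, read after 1 h at ambient temperature.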
# PINK1 modulator: A Quantitative High throughput Screen to Identify Chemical Modulators of PINK1 Expression | PINK1 immunofluorescence, high-content cytometry, 24 h | AID 624263, 2012 | 0.2% of 410,000 active | Potency, µM (highest dose often 76.6 µM), inactives show at the top dose activation (PINK1 increase), usual class: activators; active = well fitted activation curve with a large enough effect; inconclusive = small, poorly fitted or top-dose-only effect; inactive = flat fitted curve, though single readings scatter; cell line not stated here;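 also: potency is read from the fitted curve at half-maximal effect; % of control where 0% means no effect; nearly all actives have a fitted effect of over 65% in size; a mitochondrial uncoupler was the plate control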
#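 Decision-based qHTS: stable cells, 24 h exposure to five compound concentrations, CCCP as control. Fixed cells stained for PINK1 plus nuclear, mitochondrial and cell markers, cytometer read.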
# Active calls of the source: *; ? = inconclusive; nt = not tested or not shown; & = joins results of further samples; [ ] = another dose, or the depositor's remark.
cpd	canonical_smiles	D2 PAM	Six1-Eya2 inh	TRPML1 agonist
1	COc1ccc(CCN2CC(C#N)=C3c4cc(OC)c(OC)cc4CCN3C2)cc1OC	-3	-24	0.6
2	O=C(CCC(=O)c1cccs1)Nc1ccc(F)c(F)c1F	-1	-3	-0.9
3	Oc1ccccc1CNCCCN1CCOCC1	-9	-4	-0.1
4	O=C(C1=C[C@H](c2coc3ccccc3c2=O)C[C@H](OCc2ccc(CO)cc2)O1)N1CCN(Cc2ccc3c(c2)OCO3)CC1	-25	0	0.6
5	Cc1cccc(C(C(=O)NC2CCCC2)N(C(=O)c2csnn2)C2CCCC2)c1 (configuration not stated)	-9	-5	0.9
6	O=c1[nH]c2cc(NCCO)c([N+](=O)[O-])cc2[nH]1	9	-20	1.7
7	C#CCOCCOCCOCCNc1nc(N2CCN(C(=O)CCCCCCCCCCNC(=O)[C@@H](CCSC)n3cc(CCO)nn3)CC2)nc(N2CCN(C(=O)CCCCCCCCCCNC(=O)[C@H](CCSC)n3cc(CCO)nn3)CC2)n1	-29	6	0.3
8	COCC(C)NC(=O)CSc1nc2nn(-c3ccccc3)c(=O)c-2c2n1CCCCC2 (configuration not stated)	-2	-7	-1.1
9	NC(=O)c1ccsc1NC(=O)COC(=O)Cc1n[nH]c(=O)c2ccccc12	-5	-6	0.7
10	COc1ccc(Br)cc1C1=CC(=O)C[C@H](c2ccc(F)cc2)C1	2	-1	0.0
11	O=C(C1=C[C@@H](c2ccc(C(F)(F)F)cc2)C[C@@H](OCc2ccc(CO)cc2)O1)N1CCN(Cc2ccccc2)CC1	2	-15	0.8
12	COc1ccccc1N1CCN(C(=O)CCCCCn2c(=O)[nH]c3ccsc3c2=O)CC1	15	-17	0.7
13	Cc1ccc(S(=O)(=O)n2cccc2C)cc1	-3	3	3.4
14	O=C(NC1CCCCC1)N(C1=NCCCCC1)c1ccc(Br)cc1	-8	-2	0.2
15	CCCCn1c(SCC(=O)NC2CC2)nc2ccccc2c1=O	4	1	1.3

cpd	CtBP-E1A inh	D2 ag	PINK1 modulator
1	-14	-0.2	1.5%
2	4	-1.6	0.2%
3	9	-2.5	0.0%
4	-16	5.2	0.1%
5	2	-2.6	-0.4%
6	nt	-3.5	-0.5%
7	2	1.7	2.2%
8	-6	-3.5	1.8%
9	-1	1.2	4.8%
10	3	-8.2	3.4%
11	-3	?	2.3%
12	-4	1.5	3.0%
13	0	-2.8	0.6%
14	-17	-5.0	0.5%
15	5	7.9	2.5%

# More structures follow:
cpd	canonical_smiles	D2 PAM	Six1-Eya2 inh	TRPML1 agonist
16	COc1ccc(NC(=O)c2cccc(NC(=O)c3ccco3)c2)c(OC)c1	-7	-5	6.3
17	CC1CCCC(NC(=O)Cn2cc3c(n2)CCCCC3)C1C (configuration not stated)	-3	17	0.5
18	CNC[C@H]1Oc2ccc(NC(=O)Nc3ccccc3)cc2CC(=O)N([C@H](C)CO)C[C@H]1C	-16	3	-0.3
19	CCN(CC)S(=O)(=O)c1ccc(N/N=C(\C)c2ccc3c(c2)OCO3)c([N+](=O)[O-])c1	-12	-12	-0.5
20	Cc1ccc2ncnc(Oc3ncccc3NC(=O)C(C)(C)C)c2c1	-4	3	1.3
21	CC(NC(=O)C1CCN(C(=O)Nc2ccccc2)CC1)c1ccccc1 (configuration not stated)	-2	-2	-0.5
22	N#Cc1ccccc1CSC1=NCCS1	-1	4	0.2
23	COC(=O)c1c(C)oc(C)c1S(=O)(=O)NCc1cccs1	3	3	2.1
24	N#CCSc1nc2c(c(=O)n1Cc1ccccc1)C1(CCCC1)Cc1ccccc1-2	-4	-7	1.2
25	COC(=O)c1ccc2c(=O)n(CCCCCC(=O)NC(C)C)c(=O)[nH]c2c1	-6	1	0.4&-0.3
26	CCOc1cc2nc(-c3ccc(OC)c(OC)c3)nc(N3CCOCC3)c2cc1OC	-14	-19	-1.0
27	Cc1ccccc1C(=O)Nc1ccc(C(=O)N/N=C/c2ccccn2)cc1	-9	-4	-0.4
28	Cc1cccc(NC(=O)CNC(=O)CNC(=O)Cc2ccccc2)c1	-12	4	0.6
29	CN(C)S(=O)(=O)c1cccc(C(=O)Nc2ccccc2C(=O)NC2CC2)c1	-9	1	1.6
30	COc1ccc(C(=O)N2CCN(Cc3cc(OC)c(O)c(OC)c3)CC2)cc1OC	-10	4	0.1

cpd	CtBP-E1A inh	D2 ag	PINK1 modulator
16	-27	-1.0	2.1%[38.3 µM]
17	2	-7.6	4.2%
18	-5	-3.2	0.7%
19	-14	-5.1	2.3%
20	-1	1.2	0.6%
21	2	-4.6	0.1%
22	15	-1.8	-1.1%
23	nt	-0.4	-1.6%
24	-4	-2.3	0.8%
25	0	-2.9	0.8%&19%
26	-18	-6.5	-0.2%
27	-12	-0.6	-1.6%
28	-4	-3.3	3.2%
29	0	-1.3	0.1%
30	-5	-0.9	0.5%[38.3 µM]

# Next part
cpd	canonical_smiles	D2 PAM	Six1-Eya2 inh	TRPML1 agonist
31	O=C1CCN(Cc2ccc([N+](=O)[O-])cc2)CCN1[C@H](CO)Cc1ccccc1	-9	0	0.0&1.0
32	Cc1c(C(=O)O)sc(=S)n1-c1ccccc1	-5	2	3.9
33	Cc1cc(/C(N)=N/OC(=O)c2ccccc2Cl)no1	0	0	2.3
34	Cc1nc2sccn2c(=O)c1S(=O)(=O)NCC1CCN(Cc2ccc(Cl)cc2)CC1	-22	-1	0.0
35	COCCn1nnnc1C(c1cc2ccc(OC)cc2[nH]c1=O)N1CCc2ccccc2C1 (configuration not stated)	-19	0	1.0
36	CCCn1cc(S(=O)(=O)CC(=O)N2CCc3ccccc32)c2ccccc21	19	2	7.7
37	O=C(Cn1nnc(-c2ccccc2Cl)n1)NCc1ccc2c(c1)OCO2	-2	10	0.3
38	O=C(O)c1ccc(N2CCS(=O)(=O)CC2)cc1	-2	2	0.3
39	COCCCNC(=O)c1ccc(CN2CCc3ccccc3C2)cc1	-21	2	4.2
40	COc1cc(NC(=O)COC(=O)/C=C/c2ccc(O)c(OC)c2)cc(OC)c1	-13	-5	2.3
41	Cc1cc2c(=O)n(CC(=O)NCC(=O)Nc3ccc(C(C)C)cc3)cnc2s1	-26	-6	0.8
42	O=C1CCCN1c1ccc(S(=O)(=O)N2CCN(c3ccccn3)CC2)cc1	4	3	0.7
43	Cc1cc(C)n2c(SCC(=O)Nc3ncc(C(F)(F)F)cc3Cl)nnc2n1	-7	-14	-0.1
44	COc1ccc(C2C(C#N)=C(N)N(c3cccnc3)C3=C2C(=O)CCC3)cc1Cn1cc([N+](=O)[O-])cn1 (configuration not stated)	-24	-11	0.2
45	CCCCNCc1cc(Cl)c(OCCC)c(OCC)c1	-21	10	-0.6

cpd	CtBP-E1A inh	D2 ag	PINK1 modulator
31	3	-2.5	-0.4%
32	-2	-1.4	-2.0%
33	14	6.9	0.6%
34	1	-1.7	0.6%
35	1	-1.3	nt
36	-1	3.3	-0.7%
37	-6	1.9	6.6%
38	8	-2.8	3.0%
39	8	-2.7	2.5%
40	0	0.7	2.6%
41	-18	2.1	1.2%
42	5	2.7	2.3%[38.3 µM]
43	-5	-1.0	-1.2%
44	-7	1.3	-0.9%
45	12	0.2	-4.7%[38.3 µM]

# An excerpt from above in order of molar mass, descending.
cpd	canonical_smiles	D2 PAM	Six1-Eya2 inh	TRPML1 agonist
18	CNC[C@H]1Oc2ccc(NC(=O)Nc3ccccc3)cc2CC(=O)N([C@H](C)CO)C[C@H]1C	-16	3	-0.3
14	O=C(NC1CCCCC1)N(C1=NCCCCC1)c1ccc(Br)cc1	-8	-2	0.2
36	CCCn1cc(S(=O)(=O)CC(=O)N2CCc3ccccc32)c2ccccc21	19	2	7.7
10	COc1ccc(Br)cc1C1=CC(=O)C[C@H](c2ccc(F)cc2)C1	2	-1	0.0
23	COC(=O)c1c(C)oc(C)c1S(=O)(=O)NCc1cccs1	3	3	2.1
45	CCCCNCc1cc(Cl)c(OCCC)c(OCC)c1	-21	10	-0.6

cpd	CtBP-E1A inh	D2 ag	PINK1 modulator
18	-5	-3.2	0.7%
14	-17	-5.0	0.5%
36	-1	3.3	-0.7%
10	3	-8.2	3.4%
23	nt	-0.4	-1.6%
45	12	0.2	-4.7%[38.3 µM]

# Later entries.
cpd	canonical_smiles	D2 PAM	Six1-Eya2 inh	TRPML1 agonist
46	CCC1(c2ccc(F)cc2)NC(=O)N(CC(=O)NCC(=O)Nc2cccc(C)c2C)C1=O (configuration not stated)	4	1	0.4
47	COC(=O)C1=C(C)Nc2ncnn2C1c1ccccn1 (configuration not stated)	-4	3	-0.3
48	Brc1cccc(C2Nc3cccc4cccc(c34)N2)c1	2	4	0.0
49	CCN1C(=O)N[C@@H](CCc2ccccc2)C(C(=O)OC)=C1C	-3	-1	-0.1
50	COCCN(C(=O)CN1CCc2ccccc21)c1c(N)n(Cc2ccccc2)c(=O)[nH]c1=O	-1	-6	0.3
51	COc1cc(/C=N/NC(=O)c2ccc(O)cc2)ccc1Oc1ccc([N+](=O)[O-])cn1	12	-21	0.1
52	O=[N+]([O-])c1cccc(C([O-])=C(C(=S)Nc2cccc3ccccc23)[n+]2ccccc2)c1	-9	-23	-0.1
53	Cc1ccc(N/C(N)=N/c2nc(CSc3nnc(C)s3)cc(=O)[nH]2)c(C)c1	0	5	2.2
54	COc1ccc(-c2c3c(nc4sc(C(=O)Nc5ccccc5)c(N)c24)CCC3)cc1	-11	-1	-0.4
55	COCc1cc(C)nc(OCC(=O)N/N=C/c2ccc(-c3cc([N+](=O)[O-])ccc3Cl)o2)c1C#N	-5	0	1.8
56	COc1ccc(-c2cc3nc(C)cc(N4CCN(C(=O)c5ccoc5)CC4)n3n2)cc1	8	-9	1.5
57	CC(=NCCCN(C)C)C1=C(O)c2ccccc2C1=O	-22	2	1.2

cpd	CtBP-E1A inh	D2 ag	PINK1 modulator
46	-22	0.0	-0.6%
47	13	5.1	6.2%[38.3 µM]
48	-10	4.1	-1.5%
49	-5	3.1	-0.8%
50	-3	0.3	0.6%
51	-6	0.7	3.9%
52	-25	0.6	5.7%
53	nt	-2.0	4.7%
54	3	-2.4	18%
55	-28	-18	2.7%
56	2	0.5	?
57	-3	-2.1	24%

# Screening results as filed in PubChem.
